AmpC nodet inh = inhibitors of E. coli AmpC beta-lactamase without detergent; P00811; AmpC nitrocefin hydrolysis, absorbance 480 nm, no detergent; potencies from a single point are estimates; Potency, µM (highest dose often 28.7 µM), for the others: top-dose activity change, negative = inhibition; 71,000 tested, 1.8% active; AID 585; active = falling curve, for most hits resting on a single point; inconclusive = weak or doubtful change; inactive = flat or rising curve; note: % of control where 0% means no effect; about half of the hits show no inhibition at the top dose; a quarter of the inactives give rising signals
Target sequence (P00811 whole entry, looked up): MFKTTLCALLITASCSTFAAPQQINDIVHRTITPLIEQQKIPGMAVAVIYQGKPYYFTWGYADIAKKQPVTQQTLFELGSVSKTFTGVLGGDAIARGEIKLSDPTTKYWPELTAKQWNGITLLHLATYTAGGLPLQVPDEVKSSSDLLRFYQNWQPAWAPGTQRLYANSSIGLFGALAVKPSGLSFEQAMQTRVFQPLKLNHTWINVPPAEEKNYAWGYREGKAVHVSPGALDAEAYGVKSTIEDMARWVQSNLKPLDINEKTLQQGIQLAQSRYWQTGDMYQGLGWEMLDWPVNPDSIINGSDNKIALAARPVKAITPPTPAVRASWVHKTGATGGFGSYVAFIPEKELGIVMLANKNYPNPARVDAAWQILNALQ
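AmpC in 20 mM phosphate buffer pH 7.0 was preincubated 15 min at room temperature with compounds. Nitrocefin (800 uM stock) was then added and hydrolysis followed at 480 nm every 20 s for 4 min.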
* marks the source's active call; other numbers are inactive results; [ ] = dose if it differs, or a comment. Potency is the fitted concentration of half-maximal effect. An excerpt. The share of hits here may be higher or lower than overall.

SMILES	AmpC nodet inh
O=C(Nc1ccc(Br)cn1)c1ccc2nccnc2c1	-5.5%
COc1ccc(NS(=O)(=O)c2ccc(I)cc2)cc1N1CCN(C)CC1	61.7%
C=CC1CO1 (stereo not drawn)	-16.0%
CCOc1ccc(C(=S)N2CCOCC2)cc1	1.9%
CC1CCc2nn(CC(=O)NC3CCCC3)cc2C1 (stereo not drawn)	-4.5%
O=C(CSc1nnc(CNC(=O)c2cccs2)o1)Nc1ccc2c(c1)OCO2	-3.8%
COC(=O)c1ccccc1NS(=O)(=O)c1cn(C)c(=O)n(C)c1=O	2.7%
COCc1cc(C)nc(SCC(=O)Nc2cc3c(cc2C#N)OCO3)c1C#N	3.7%
Cc1cc(S(=O)(=O)N2CCCC2)ccc1OCC(=O)NCc1ccco1	13.1%
O=S(=O)(NC1CCc2ccccc21)c1ccc(S(=O)(=O)N2CCCC2)cc1 (stereo not drawn)	-14.1%
O=C1c2ccccc2CC1Sc1nnc(-c2ccccn2)o1 (stereo not drawn)	-6.8%
Nc1nc(CSc2nnc(-c3cccc(F)c3)n2-c2ccccc2)nc(N2CCOCC2)n1	41.8%
FC(F)(F)c1cc(-c2ccco2)nc(-n2cnc3ccccc32)n1	38.8%
COCCNC(=O)c1ccc(CS(=O)(=O)c2ccc(Cl)cc2)o1	-3.8%
O=C(NCCN1CCN(C(=O)NC2CCCCC2)CC1)NC1CCCCC1	11.9%
Cc1ccc(C)c(-n2c(SCC(=O)N3CCCC3)nnc2-c2ccccn2)c1	67.0%
O=C(NC1=NCCS1)C1CC(=O)N(c2ccccc2)C1 (stereo not drawn)	-9.2%
Nc1cccc(-n2nncc2-c2ccccc2)c1	-6.0%
COc1ccc(Cn2nnnc2C(C(C)C)N2CCc3ccccc32)cc1 (stereo not drawn)	19.8%
COc1ccccc1S(=O)Cc1ccc(C(=O)O)o1 (stereo not drawn)	1.1%
CC1(C)Cc2ccccc2-c2nnc(-c3cccnc3)n21	-3.9%
COC(=O)[C@@H](N)Cc1ccc(O)c(O)c1	0.2%
O=C(C1CCCCC1)N1CCN=C1SCc1cccnc1	22.9%
CS(=O)(=O)N(CCc1ccccc1)CC(=O)N1CCc2ccccc2C1	21.4%
CC(OC(=O)c1cc2sccc2n1C)C(=O)NCc1cccs1 (stereo not drawn)	-10.0%
O=C(c1csnn1)N1CCC2(CCCN(Cc3ccccc3)C2)CC1	-7.9%
COc1ccc(CCNS(=O)(=O)c2ccc3c(c2)oc(=O)n3C)cc1OC	6.5%
CCOC(=O)c1c(NC(=O)c2ccoc2C)sc2c1CCC2	6.0%
COc1ccc(Oc2ncc3nc(-c4ccc(OC)cc4)c(=O)n(C4CC4)c3n2)cc1	20.9%
Cc1cc(NC(=O)CCN2C(=O)c3ccccc3C2=O)no1	-6.9%
Cc1ccc2cc(CCNC(=O)C(C)C)c(=O)[nH]c2c1	19.6%
Cc1nc2ncnn2c(C)c1CCC(=O)Nc1ccc(S(=O)(=O)N2CCCCCC2)cc1	112.1%
CS(=O)(=O)Nc1ccc([N+](=O)[O-])cc1Oc1ccccc1	10.6%[12.8 µM]
O=S(=O)(O)[C@@H](c1ccccc1)[C@@H](O)c1ccccc1	2.9%[5.75 µM]
Cc1ccc2cccc(OC(=O)c3ccc4c(c3)OCCO4)c2n1	39.4%
CC(=O)Nc1cc2c(=O)n(Cc3ccccc3)c(C)nc2cc1N1CCOCC1	91.0%
CCOCCCNC(=O)C1CCN(S(=O)(=O)CC)CC1	-9.1%
C[C@H]1CC[C@@]2(NC1)O[C@@H]1C[C@H]3[C@@H]4CC=C5C[C@@H](O)CC[C@]5(C)[C@@H]4CC[C@]3(C)[C@@H]1[C@@H]2C	0.4%[12.8 µM]
CN(C)C(=S)SSC(=S)N(C)C	-8.3%
Cn1c(=O)c2c(nc(N3CCOCC3)n2CC(=O)C23CC4CC(CC(C4)C2)C3)n(C)c1=O	124.5%
Cc1o[nH]c(=O)c1C[C@@H](N)C(=O)O	8.7%
COc1ccc(CCn2c(N)c(C(=O)NCc3ccco3)c3nc4ccccc4nc32)cc1OC	116.5%
CCC(=O)N(c1ccc(F)cc1)C1C=CS(=O)(=O)C1 (stereo not drawn)	6.3%
COCC(=O)Nc1nc2n(n1)C(c1ccc(OC)cc1)CC(c1ccc(OC)cc1)N2 (stereo not drawn)	86.9%
CN1C(=O)N(C)C2(c3ccccc3)N(C)C(=O)NC12c1ccccc1 (stereo not drawn)	4.5%
CCOC(=O)N1CCC(NS(=O)(=O)c2ccc3c(c2)OCC(=O)N3)CC1	-0.2%
COc1ccc(CNC(=O)c2ccc(NS(=O)(=O)c3c(C)noc3C)cc2)cc1	2.0%
Cc1c(NS(=O)(=O)c2cccs2)c(=O)n(-c2ccccc2)n1C	1.5%
CC1CN(S(=O)(=O)c2ccc(Cl)c(C(F)(F)F)c2)CC(C)O1 (stereo not drawn)	-1.9%
Cc1nc(CSc2nnc3scc(-c4ccccc4)n23)cs1	-0.4%
O=C1C(Cl)=C(N2CCN(Cc3ccccc3)CC2)C(=O)N1c1ccccc1	10.3%
O=C(NCc1ccccc1)N1CCC(c2nc3ccccc3[nH]2)CC1	-10.2%
Cc1ccc(-c2ccc(OCC(=O)N3CCOCC3)cc2)cc1	64.2%
Cc1ccc(C(=O)OCC(=O)c2ccc(Cl)s2)s1	-10.9%
O=C(c1ccc2c(c1)OCCO2)C1CCN(C(=O)c2ccc(F)cc2)CC1	44.9%
Cc1ccc(N2Cc3ccccc3OC(C)C2=O)cc1 (stereo not drawn)	10.9%
COc1ccccc1-n1nnnc1SCc1ccccc1	5.5%
O=c1cnc2cnc(N3CCNCC3)nc2n1C1CC1	-12.6%
Cc1cc(NC(=O)Nc2ccc(F)c(Cl)c2)no1	-18.7%
Cc1ccc(-c2noc(CN3CCN(c4ccccc4F)CC3)n2)cc1	18.3%

Next section:
SMILES	AmpC nodet inh
Cc1c(CCC(=O)O)c(=O)oc2cc(O)ccc12	5.9%
Cc1nc(NCCCn2ccnc2)c2oc3ccccc3c2n1	-15.9%
O=C(CC1Nc2ccccc2NC1=O)NC1CCCCC1 (stereo not drawn)	2.9%
COc1ccc(C2C3=C(CC(C)(C)CC3=O)N(CCN3CCOCC3)C3=C2C(=O)CC(C)(C)C3)cc1	74.5%
O=C(NC1CS(=O)(=O)CC1NCc1ccccc1)c1ccccc1 (stereo not drawn)	-4.3%
CN(c1cccc(NC(=O)c2ccccc2N(C)S(C)(=O)=O)c1)S(C)(=O)=O	-4.1%
COc1ccc(C2CC(c3cccc(OC)c3)n3nc(N)nc3N2)cc1 (stereo not drawn)	3.98µM*[single pt active]
Cn1c(=O)c2c(nc(NC3CCCCC3)n2CC(=O)C23CC4CC(CC(C4)C2)C3)n(C)c1=O	94.7%
O=C(Nc1ccc(F)cc1F)c1ccco1	1.9%
CC(=O)c1ccc2c(c1)Nc1ccccc1S2	-7.0%
COC(=O)c1cccc(Oc2nc3c(c(=O)n(C)c(=O)n3C)n2Cc2ccc(C)cc2)c1	107.0%
CN1CCN(c2ccc(NC(=O)Cc3ccccc3)cc2)CC1	8.9%
CCOC(=O)Cn1c(=O)oc2cc(S(=O)(=O)N3CCC(N4CCCCC4)CC3)ccc21	6.6%
O=C1c2ccccc2C(=O)N1CNc1ccccc1	-13.0%
Cc1cccc(NC(=O)c2cnc3sccn3c2=O)n1	-0.7%
Cc1ccc(NC2=NCC(=O)N2Cc2ccc3c(c2)OCO3)c(C)c1	38.3%
CC(C)COC(=O)c1nnsc1NC(=O)Nc1ccccc1	15.8µM*[single pt active]
COc1cc(NC2c3ncccc3C(=O)N2Cc2ccco2)cc(OC)c1 (stereo not drawn)	37.9%
CC(=O)N(C(C)=O)c1cccc2c(N(C(C)=O)C(C)=O)cccc12	4.3%
CNc1nn(-c2cccc(Cl)c2)nc1N	3.6%
CCCCCc1c(C)nc(N2CCc3ccccc32)[nH]c1=O	12.1%
COc1cc(CN(C)CC(=O)c2[nH]c(C)c(C(C)=O)c2C)ccc1OC(F)F	44.0%
CC(C)(C)c1ccc(S(=O)(=O)NCCc2ccncc2)cc1	7.5%
CCOC(=O)c1c(C)[nH]c(C(=O)Cn2nnc(-c3ccc(Cl)cc3)n2)c1C	5.3%
CCc1c2c(nc3ccc(OC)cc13)OC(CC)C2 (stereo not drawn)	53.2%
O=C(NCCCn1ccnc1)NC(C(F)(F)F)C(F)(F)F	-5.1%
Cc1ccc(N2CC(C(N)=O)CC2=O)cc1C (stereo not drawn)	0.8%
S=c1[nH]c2ccc(Cl)cc2[nH]1	-11.4%
O=C(Nc1ccc2c(c1)OCO2)C1CCN(S(=O)(=O)c2cccc3cccnc23)CC1	3.8%
NC(=O)NC(Cc1ccccc1)C(=O)NCC1(N2CCCCC2)CCCCC1 (stereo not drawn)	-8.9%
CCNc1ncc2nc(-c3ccc(Cl)cc3)c(=O)n(-c3ccc(OC)cc3)c2n1	8.9%
CCSc1nc2c(c(=O)n1CC)SC(C)C2 (stereo not drawn)	4.9%
CCn1c(=S)sc2c(=O)n(-c3ccccc3)c(SC)nc21	-1.6%
COc1ccc(CNC(=O)c2cccc(N3CCCC3=O)c2)cc1	8.4%
COc1cccc(C(=O)N2CCCC(c3nc(-c4cccs4)no3)C2)c1 (stereo not drawn)	41.0%
COc1ccc(C(=O)CSc2nnc(Cn3cnc4ccccc43)o2)cc1	46.9%
CC(C)Sc1nc(N2CCOCC2)c2c(c1C#N)CC(C)(C)SC2	22.4%
CS(=O)(=O)Nc1cccc(-c2nccc(Nc3ccc(F)cc3)n2)c1	24.9%
COc1cccc(N2CCN(C3CC(=O)N(c4ccc(F)c(Cl)c4)C3=O)CC2)c1 (stereo not drawn)	83.7%
O=C(CS(=O)CC(=O)N(CC(=O)NC1CCCC1)C1CCCC1)Nc1ccc(F)cc1 (stereo not drawn)	40.0%
O=C(COC(=O)CCOc1ccccc1)NCc1ccco1	22.5%
c1ccc(Cn2nnc3c(Nc4ccc5c(c4)OCO5)nc(C4CC4)nc32)cc1	-3.3%
CCn1c(SCc2ccc(C)cc2)nnc1-c1cnccn1	37.4%
Cc1noc(C)c1CSc1nnc(-c2cc(Cl)ccc2Cl)n1N	-18.1%
Cc1ccccc1N1CCN(C(=O)CN2C(=O)c3ccccc3C2=O)CC1	60.7%
N=c1ccn(Cc2cccc(Cl)c2)cc1	-2.7%
Nc1ccc(Cl)cc1	5.9%
COc1cccc(-c2nc3cc(C)ccc3o2)c1	11.7%
COc1cc2c(cc1OC)-c1cc(NC3CCCCC3)nc(=O)n1CC2	7.7%
CCOC(=O)C1CCN(/C=C2/C(=O)NC(=O)N(Cc3ccco3)C2=O)CC1	0.9%
COc1ccc2c(c1OC)C(=O)N(C(C)C(=O)O)C2=O (stereo not drawn)	-9.6%
CCn1ncc(Cl)c1C(=O)Nc1ccncc1	-1.2%
N#CC1=C2SCCN2C(=O)C(C#N)C12CCCCC2 (stereo not drawn)	-6.5%
COc1cccc(CNC(=O)CN(C)S(=O)(=O)c2cnc[nH]2)c1	-3.7%
O=C(CSc1nnc(-c2cccnc2)n1Cc1ccco1)N1c2ccccc2Sc2ccccc21	140.7%
COc1ccc(S(=O)(=O)Nc2ccc(NC(C)=O)cc2)cc1OC	7.6%
COC(=O)c1ccc(C(NC(=O)OCc2ccccc2)/C(=C/[C@@H](C)C(=O)NCc2ccc(-c3ccccc3)cc2)c2cccnc2)cc1 (stereo partly drawn)	36.1%
Cc1ncc2c(c1OC(=O)c1ccccc1)COC(C)(C)OC2	41.8%
N#Cc1ccccc1NC(=O)COC(=O)c1ccc(S(=O)(=O)N2CCCC2)cc1	3.0%
CCOC(=O)N1CCN(Cc2nc(-c3ccc(C)cc3)no2)CC1	92.3%

Later entries:
SMILES	AmpC nodet inh
CCOCCCNC(=O)CN1CCN(c2ccc(F)cc2)CC1	15.5%
O=C1NC(=O)N(Cc2ccccc2Cl)C(=O)/C1=C/N1CCOCC1	-7.5%
CN1C(=C2C(=O)OC(C)(C)OC2=O)Sc2ccccc21	5.4%
COc1ccc(-c2nc3cnc(N4CCNCC4)nc3n(CCc3ccccc3)c2=O)cc1	93.5%
Cc1nc(NC(=O)c2cc3c(s2)CCCCC3)sc1C(=O)N(C)C	93.8%
CC(C)NC(=O)Cn1nnc(-c2ccc(Cl)cc2)n1	6.4%
O=C(O)CNC1=NCCC1	0.5%
CC(C)C(NS(=O)(=O)c1ccc(Br)s1)C(=O)O (stereo not drawn)	-11.1%
Cc1csc(SCC(=O)Nc2c(C)n(C)n(-c3ccccc3)c2=O)n1	-12.4%
C=CCNc1oc(COc2ccc(C)cc2)nc1C#N	7.5%
CN(C)S(=O)(=O)c1ccc(C(=O)Nc2ccc(OCC(=O)N3CCOCC3)cc2)cc1	21.8%
O=C(Nc1nc2c(Cl)cccc2s1)c1ccc(Br)o1	-15.1%

For reference, some entries already given.
SMILES	AmpC nodet inh
CN(C)S(=O)(=O)c1ccc(C(=O)Nc2ccc(OCC(=O)N3CCOCC3)cc2)cc1	21.8%
O=C(Nc1nc2c(Cl)cccc2s1)c1ccc(Br)o1	-15.1%

Filtered by structure: those above containing bromine (3)
SMILES	AmpC nodet inh
O=C(Nc1ccc(Br)cn1)c1ccc2nccnc2c1	-5.5%
CC(C)C(NS(=O)(=O)c1ccc(Br)s1)C(=O)O (stereo not drawn)	-11.1%
O=C(Nc1nc2c(Cl)cccc2s1)c1ccc(Br)o1	-15.1%
